Screening results deposited in PubChem BioAssay by ICCB-Longwood Screening Facility, Harvard Medical School.
MgrA-DNA mod: modulators of Staphylococcus aureus MgrA DNA binding; fluorescence polarization; inhibition, %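 (about 10 µg/mL by stock and volumes)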; hit rate 0.13% among 84,000;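 active means above 50% in either of two replicates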;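 further: 0% = protein plus DNA without compound and 100% = DNA alone without protein; higher means less MgrA bound to DNA so lower polarization; one replicate is shown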
S aureus helic: blocks Staphylococcus aureus DNA helicase | purified S. aureus helicase, fluorescence unwinding assay; about half of the hits fall short of the stated cut | inhibition, %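 (tested at about 80 µM)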 | hit rate 0.05% among 120,000;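 active means both duplicates at 50% or more, or one of them with a favoured structure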;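 further: 0% = mean of negative control wells and 100% = mean of positive control wells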
An asterisk follows results filed as active; / = not tested or not shown. Some of the compounds tested; the hit share may differ from the screen's.

MgrA-DNA mod,S aureus helic,molecule
0.8,/,COc1ccc(-c2cc(C(F)(F)F)n3nc(C(=O)Nc4cccc(C(C)=O)c4)cc3n2)cc1
1.2,-2,CN(C1=NC(=O)CS1)c1ccc(Cl)cc1
0.1,-93,O=c1c(-c2cc3ccccc3o2)[n+]([O-])c2ccccc2n1O
0.2,/,Fc1ccc([C@@H]2CCNC[C@H]2COc2ccc3c(c2)OCO3)cc1
0.2,/,O=C(O)/C=C/C(=O)NCC1CC1
-0.6,12,CN(C)CCNC(=O)c1cc2ccccc2oc1=O
-0.2,-7,O=C(COC(=O)/C=C/c1ccco1)Nc1ccc(F)cc1F
/,-24,CCCN1C(=O)/C(=C/c2ccc(C)o2)NC1=S
/,-7,CCN(CC)CCNc1cc(C)c2cccc(C)c2n1
0.3,-12,Cc1ccc(NS(=O)(=O)CC23CCC(CC2=O)C3(C)C)c(Br)c1 (stereo not drawn)

Look-ups from the list.
Result of CN(C)CCNC(=O)c1cc2ccccc2oc1=O under MgrA-DNA mod: -0.6
Result of O=C(COC(=O)/C=C/c1ccco1)Nc1ccc(F)cc1F under MgrA-DNA mod: -0.2
Result of CCCN1C(=O)/C(=C/c2ccc(C)o2)NC1=S under S aureus helic: -24
Result of O=C(O)/C=C/C(=O)NCC1CC1 under MgrA-DNA mod: 0.2
Result of Fc1ccc([C@@H]2CCNC[C@H]2COc2ccc3c(c2)OCO3)cc1 under MgrA-DNA mod: 0.2
Result of Cc1ccc(NS(=O)(=O)CC23CCC(CC2=O)C3(C)C)c(Br)c1 (stereo not drawn) under S aureus helic: -12
Result of CN(C1=NC(=O)CS1)c1ccc(Cl)cc1 under MgrA-DNA mod: 1.2

The list continues.
MgrA-DNA mod,S aureus helic,molecule
-1.6,6,O=C(/C=C/c1ccccc1)CC(=O)c1ccccc1O
/,-19,COC(=O)NN1CC(O)=C(c2nc(-c3ccc(F)cc3)cs2)C1=N
/,20,O=C(O)COc1ccccc1/C=N/NC(=O)c1ccccc1
-3.8,9,O=C(NCC1CCCO1)c1cccc2ccccc12 (stereo not drawn)
/,2,O=c1[nH]c(O)c(C=NC2CCCCCC2)c(=O)[nH]1
/,12,O=C(NCCCN1CCCCC1)c1ccc(CS(=O)c2ccc(Cl)cc2)o1 (stereo not drawn)
/,3,COc1ccc(C(=O)Oc2ccc(Cl)c3cccnc23)cc1OC
/,10,O=C(CCN1CCN(c2ccccc2)CC1)N/N=C/c1ccncc1
3.6,/,CCOc1ccc(N(CC(=O)N2CCN(c3ccccc3)CC2)S(=O)(=O)c2ccc(SC)cc2)cc1
0.8,-4,Clc1ccc(-c2csc3c4ncnc-4ncn23)cc1
-2.5,/,O=C(Nc1nnc(Sc2ccnc3cc(Cl)ccc23)s1)C1CC1
-2.2,-13,NC(=O)c1ccccc1OCC(=O)O
1.5,/,CSc1sc(C(=O)NN)cc1S(=O)(=O)C(C)C
/,-4,C=CCn1c(SCC(=O)N2CCc3ccccc32)nc2ccccc2c1=O
-1.1,15,Cn1c(CCCO)nc2ccccc21
14,16,Cc1ccc2c(Sc3ccc(Cl)cc3)c(C(=O)O)[nH]c2c1
-0.1,/,CCCSc1nnc2c(n1)OC(c1c(OC)ccc3ccccc13)Nc1ccccc1-2 (stereo not drawn)
-0.6,-20,Cc1cc(C)cc(OCC(=O)OCC(=O)NC23CC4CC(CC(C4)C2)C3)c1
3.0,-26,Cc1ccc(-c2csc3nc[nH]c(=S)c23)cc1
-2.6,5,O=C(Nc1cccnc1)c1ccccc1O
0.3,-3,CN(C)S(=O)(=O)c1cccc(C(=O)NCC2CCCO2)c1 (stereo not drawn)
-2.0,/,CCOC(=O)c1c(NC(=O)CN2C(=O)/C(=C/c3ccccc3Cl)SC2=S)sc2c1CCCC2
/,6,O=C(CCc1c[nH]c2ccccc12)OCN1C(=O)c2ccccc2C1=O
1.5,3,Cc1ccc(-c2noc(CNc3ccc(Oc4ccccc4)cc3)n2)cc1
/,-16,O=C(O)c1c[nH]c(=O)cc1C(F)(F)F
/,-24,CCOc1cccc(C(=O)N2CCCCC2c2cccnc2)c1 (stereo not drawn)
2.1,9,CCC(C)NC(=O)Cn1c(=O)n(-c2ccc(Cl)c(Cl)c2)c(=O)c2c(C)c(C)sc21 (stereo not drawn)
/,2,O=C(CNC(=O)c1ccc2ccccc2c1)NCc1ccccn1
0.9,6,NNC(=O)c1c(O)c2ccccc2[nH]c1=O
3.6,/,Cc1cc(C(=O)O)c(C)n1C
1.2,6,Cc1c(C(=O)NC2CCCc3ccccc32)oc2ccc(S(=O)(=O)N3CC(C)CC(C)C3)cc12 (stereo not drawn)
-2.5,-3,O=C(NCC1(c2ccccc2)CCCC1)c1ccc(Cl)cc1
/,20,CNCC(=O)NC1CC1
0.0,/,CC(=O)c1cc2cc(Cl)cc(Cl)c2oc1=O
1.1,8,CC1(C)CC(NC(=O)CCCC(=O)O)CC(C)(C)N1
0.6,6,C=CCN(CC=C)S(=O)(=O)c1ccc(NC(=O)Nc2ccccc2)cc1
/,-15,Cc1ccccc1COc1ccccc1C(=O)O
/,3,O=C(Oc1ccc2oc(=O)sc2c1)c1ccccc1
3.5,5,CC(C)(CN=C1NS(=O)(=O)c2ccccc21)CNC(=O)c1ccccc1Cl
/,-8,COc1cccc(OC)c1C1N=C(N)Nc2nc3ccccc3n21 (stereo not drawn)
3.4,/,CC(=O)Oc1ccc2c(c1)CCC1C2C(C)(O)CC2(C)C(OC(C)=O)CCC12 (stereo not drawn)
4.5,2,COc1ccc(NC(=O)Nc2ccc(N3CCCC3=O)cc2)cc1OC
/,-11,CC(=O)Nc1ccc2nc(NC(=O)c3cccs3)sc2c1
-0.2,/,O=S(=O)(c1ccc(Cl)cc1)N(CCc1ccccn1)c1ccc(Cl)cc1
2.8,-26,O=C(NCCc1ccccn1)c1ccccc1OCc1ccccc1
0.6,/,OC(CN1CCc2ccccc2C1)C(F)(F)F (stereo not drawn)
-2.0,11,COc1ccc(NC(=O)c2cnc(SC)nc2)cc1
-0.9,8,COc1cccc(Nc2ccc(C(=O)O)cc2N)c1
4.0,10,CC1=NN(c2nc3ccccc3s2)C(O)(C(F)(F)F)C1 (stereo not drawn)
0.5,-6,Cc1ccc(NC(=O)CN2C(=O)CSc3ncccc32)cc1

Continuation.
MgrA-DNA mod,S aureus helic,molecule
/,1,CCSc1nnc(NC(=O)CC(C)C)s1
0.3,8,NC(=O)CSc1nsc(SCC(N)=O)n1
/,-17,COc1ccccc1NCC(=O)Nc1ccc(N2CCOCC2)cc1
/,9,O=C(Nc1ccccc1)Nc1c2ccccc2nc(=O)n1Cc1ccccc1
/,-21,O=C(CN1CC(=O)Nc2ccccc21)Nc1cccc(Cl)c1
-3.5,9,Clc1ccccc1C(c1nnnn1Cc1ccco1)N1CCN(Cc2ccco2)CC1 (stereo not drawn)
-7.1,2,CC1(C)Cc2[nH]c(=S)c(C#N)cc2CO1
-1.9,12,CN(Cc1ccccc1)C(=O)c1ccccc1Cl
-2.4,-1,CCOc1ccc(CCNC(=O)C2CCN(S(C)(=O)=O)CC2)cc1OCC
-3.4,-23,CC(Oc1ccc(C(C)C)cc1)C(=O)Nc1nccs1 (stereo not drawn)
/,24,CC(=O)O/N=C(\N)c1nccnc1Sc1ccc(Cl)cc1
/,6,O=C(Nc1ccccc1)c1cccnc1
/,-20,O=C1CC(c2nc3ccccc3[nH]2)CN1Cc1ccccc1 (stereo not drawn)
2.8,0,N#Cc1ccc(NC(=O)CS(=O)(=O)c2ccccc2)cc1
/,-2,CC(Sc1nnc(-c2cccs2)n1-c1ccccc1)C(=O)NCc1ccc2c(c1)OCO2 (stereo not drawn)
/,-4,CCSc1nnc(-c2cc(-c3cccs3)nc3ccccc23)o1
/,-4,CN(C)C(CNC(=O)c1ccccc1SCC(=O)NCc1ccco1)c1ccccc1 (stereo not drawn)
/,-2,CN1CCC(N)CC1
-2.0,4,Cc1cc2cc(CNC(=O)Nc3cccc(Cl)c3)ccc2n1C
/,-5,COc1ccc(-n2ncc3c2ncn2nc(-c4ccccc4)nc32)cc1
/,4,CCOc1ccc(/C=N/C2=C(C#N)C3CCCCC3S2)cc1OC (stereo not drawn)
-0.9,/,Cc1noc(C)c1C(=O)Oc1ccc(-c2n[nH]nc2C#N)cc1
-1.6,10,CCCOc1cccc(NC(=O)c2occc2C)c1
-0.8,-1,Cc1ccc(CS(=O)Cc2ccc(C(=O)NCc3ccccc3)o2)cc1 (stereo not drawn)
-0.3,/,O=C(CSc1nnc(Cc2ccsc2)o1)c1ccccc1
/,-18,O=C(COC(=O)C1CC(=O)N(Cc2ccccc2)C1)Nc1ccc(SC(F)F)cc1 (stereo not drawn)
/,-19,N#CC1=C(N)C(C#N)(C#N)C(c2ccco2)C2CCCC=C12 (stereo not drawn)
5.4,11,N=C1/C(=C/c2ccc(F)cc2)C(=O)N=C2SC(C(F)(F)F)=NN12
-0.2,/,Cc1ccc(C)n1-c1ccc(C(F)(F)F)cc1
0.4,-7,NC(Cc1c[nH]c2ccccc12)C(=O)O (stereo not drawn)

Arranged by molecular weight (smallest number first): 3 of the compounds above
MgrA-DNA mod,S aureus helic,molecule
0.4,-7,NC(Cc1c[nH]c2ccccc12)C(=O)O (stereo not drawn)
-0.9,/,Cc1noc(C)c1C(=O)Oc1ccc(-c2n[nH]nc2C#N)cc1
-0.3,/,O=C(CSc1nnc(Cc2ccsc2)o1)c1ccccc1

5 entries already listed, sorted by their value in S aureus helic, high to low:
| smiles | MgrA-DNA mod | S aureus helic |
| --- | --- | --- |
| CNCC(=O)NC1CC1 | / | 20 |
| CCCOc1cccc(NC(=O)c2occc2C)c1 | -1.6 | 10 |
| CN1CCC(N)CC1 | / | -2 |
| C=CCn1c(SCC(=O)N2CCc3ccccc32)nc2ccccc2c1=O | / | -4 |
| O=c1c(-c2cc3ccccc3o2)[n+]([O-])c2ccccc2n1O | 0.1 | -93 |

The results go on.
MgrA-DNA mod,S aureus helic,molecule
-1.9,13,CCOC1CC(C)(C)NC(=S)N1 (stereo not drawn)
-0.9,/,O=C(CN1CCCCCCC1)N/N=C/c1ccccc1C(F)(F)F
1.6,12,O=C(c1ccc(N2CCCC2=O)cc1)N1CCCC1
-8.6,5,COCC(C)N1CC(C(=O)O)CC1=O (stereo not drawn)
3.0,/,Ic1ccc2[nH]ccc2c1
1.4,9,CCN1/C(=C2/SC(=S)N(C)C2=O)Sc2ccc(S(=O)(=O)C(F)(F)F)cc21
/,5,COc1cccc2c1Oc1ncccc1N(c1ccc(C(=O)NCCN(C)C)s1)C2
/,6,CC(C)CC(=O)Nc1ccc2nc(SCc3cc(=O)n4ccsc4n3)sc2c1
-2.7,/,Cc1cc(-c2ccsc2)cc(C)n1
-1.4,/,NC(=O)c1ccccc1NCC(=O)c1ccc(Cl)cc1
/,30,CC1CCCCN1C(=O)c1ccc(C(=O)N2CCCCC2C)cc1 (stereo not drawn)
/,7,CC1CC(C)CN(C(=O)COC(=O)c2ccc(N3CCCC3=O)cc2)C1 (stereo not drawn)
-0.9,-7,CC(=O)OC1CC(C)(C)N(C(C)=O)C(C)(C)C1
/,-1,Cc1noc(C)c1S(=O)(=O)NC1CCCC1
/,-26,C=C(C)C1CC=C(C)/C(=N\NC(=O)c2ccc(O)cc2)C1 (stereo not drawn)
/,15,CN(C)S(=O)(=O)c1ccc(C(=O)Nc2c3c(nn2-c2ccccc2)CSC3)cc1
-1.2,3,CC(C)N(C(=O)CSc1nnnn1-c1ccccc1)C(C)C
-2.1,/,O=C(Nc1nc(-c2ccc(OC(F)(F)F)cc2)no1)NN1CCCCC1
3.3,17,CCN(CC)C(=O)CC1(CC(=O)N(CC)CC)C(=O)N(C)C(=O)N(C)C1=O
/,3,CCN(CC)S(=O)(=O)c1ccc(CNC(=O)c2ccc[nH]2)cc1
1.4,/,CCOC(=O)c1c(NC(=O)NC(C)(C)C)sc2c1CCN(C)C2
-4.1,/,CC1=[N+](S(=O)(=O)c2ccc(Cl)cc2)CCN1
3.5,-18,Cc1sc2nc(CCl)[nH]c(=O)c2c1-c1ccccc1
/,28,O=c1oc2ccccc2n1CCc1nnc(-c2ccccc2)o1
-0.6,8,COC(=O)c1ccc(CSc2nc3ccccc3o2)cc1
/,7,COc1ccc2c(CC(=O)Nc3ccnn3CC(C)C)coc2c1
-3.6,/,COc1ccc(-c2nc3c(C#N)cnn3cc2C)cc1F
/,-18,COC(=O)c1c(NC(=O)c2ccc(Cl)s2)sc2c1CCC2
-2.6,2,COc1ccccc1C(=O)Nc1ccc(C)cc1
2.4,5,COc1ccc(NC(=O)c2cnn(-c3ccccc3)c2NC(=O)c2ccccc2F)c(OC)c1
-8.7,4,COc1ccc(C(=O)OCc2ccccn2)cc1
3.5,7,CCOC(=O)c1c(N2C(=O)C3C4C=CC(O4)C3C2=O)sc2c1CCCC2 (stereo not drawn)
/,6,O=C(Nc1ccccc1)Nc1c2c(nc3c1CCC3)CCCC2
-0.5,15,CCc1cc2c(=O)n(-c3ccccc3)cnc2s1
3.8,2,Cc1ccc2c(c1)N(CC(=O)N1CCCc3ccccc31)C(=O)CO2
/,-7,COc1ccc(CN(C)Cc2cc(=O)n3ccsc3n2)c(OC)c1OC
/,-71,C=C1N(C)c2cc(CN3C(=O)c4ccccc4C3=O)ccc2C1(C)C
/,-3,NC(=O)C1CCN(C(=O)Cc2ccc(-c3ccccc3)cc2)CC1
/,13,CC(=O)NCCCc1ccc(-c2csc(N)n2)cc1
0.4,5,Cn1c(SCc2ccccc2)nc2c([nH]c3ccccc32)c1=O
/,40,Cc1nc2c(=O)[nH]c(=O)n(C)c2nc1C
-0.6,0,CCC(C)NC(=O)COc1cccc(C)c1C (stereo not drawn)
-2.5,/,NC(=O)c1cc2sccc2s1
/,-14,COCCCN=C1NN=C(c2ccc(C)c(C)c2)CS1
0.3,-5,COCCNc1oc(-c2ccccc2)nc1S(=O)(=O)c1ccc(Cl)cc1
0.6,-9,COc1ccccc1NC(=O)c1c(C)nn(-c2ccccc2)c1Cl
-2.2,/,Cc1cc(-c2noc(C(C)(C)C)n2)no1
13,-19,CCn1c(O)c(C=Nc2cccc(O)c2)sc1=S
-1.6,-6,Cc1cc(C)cc(NS(=O)(=O)c2ccc3[nH]cc(C(=O)NCCC4=CCCCC4)c(=O)c3c2)c1
